rRNA inh HTS – inhibitors of bacterial rRNA selective over humanized ribosomes; E. coli WT GFP vs humanized-ribosome RFP mutants, fluorescence, 24 h; active compounds read low; DMSO median 0, no signal -100; GFP signal change (wild-type ribosome), % (no concentration beside the values); actives 1.6% (n = 350,000);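 active means significant combined selectivity score with lowered wild-type GFP, culture density cut under 30%, mutant RFP and density less affected; inactive means any of these conditions unmet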; further: one replicate is shown; some compounds called inactive have numbers as strong as hits
T cruzi inh – blocks replication of Trypanosoma cruzi. T. cruzi beta-gal in NIH3T3, luminescence, 90 h. inhibition, % (test concentration not listed). actives 1.4% (n = 300,000). AID 1885;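 active means mean inhibition across valid replicates above about 55%, limit read from the data; inconclusive means mean below that limit but half or more replicates reach it; inactive means mean below it, under half of replicates reach it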;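 further: signal also drops with host cell toxicity which is not excluded here; 0% = plate median of DMSO wells and 100% = zero luminescence signal; higher percent means less beta-gal luminescence so fewer parasites; stock transfer was 50 nL into about 50 µL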
Beta cell apopt – beta cell apoptosis inhibition; INS-1E cytokine-induced death, ATP luminescence, 48 h; percent of positive-control rescue, neutral wells zero; protection from apoptosis, % (test concentration not listed); actives 0.8% (n = 300,000);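 active means all replicates at 75% or more, or half of them and the mean; inconclusive means half reach 75% but not the mean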;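 further: 0% = cytokine-treated negative control wells and 100% = positive control rescue; higher means more ATP so stronger rescue from cytokine killing; wells of about 40 µL received 100 nL stock; the first replicate is given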
Calb FLC – affects C. albicans growth with fluconazole; C. albicans CaCi-2 (fluconazole-resistant clinical isolate) + fluconazole, Alamar Blue growth, 48 h; growth inhibition, % (no concentration beside the values); actives 0.57% (n = 300,000);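 active means most replicates above 75%; inconclusive means exactly half above 75%; inactive means most below 75%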;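 further: all wells also contain fluconazole at 8 µg/ml as a sub-toxic cotreatment; 0% = median of DMSO wells and 100% = median of geldanamycin control wells; wells of about 8 µL received 7.5 nL stock; the first replicate is given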
B2AR ag – human beta-2 adrenergic receptor agonism by FAP | P07550 | Am2.2-beta2AR cells, FAP receptor internalization, flow cytometry; reference of the scale not given here | response, % (test concentration not listed) | actives 0.43% (n = 340,000) | AID 504454;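 active means response above a set limit, near 3 SD of response in nonfluorescent compounds, cut at about 42% in these data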;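 further: stock transfer was 100 nL into about 11 µL; a reference agonist was the positive control; negative values mostly stem from fluorescent compounds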
Target sequence (P07550 whole entry, looked up): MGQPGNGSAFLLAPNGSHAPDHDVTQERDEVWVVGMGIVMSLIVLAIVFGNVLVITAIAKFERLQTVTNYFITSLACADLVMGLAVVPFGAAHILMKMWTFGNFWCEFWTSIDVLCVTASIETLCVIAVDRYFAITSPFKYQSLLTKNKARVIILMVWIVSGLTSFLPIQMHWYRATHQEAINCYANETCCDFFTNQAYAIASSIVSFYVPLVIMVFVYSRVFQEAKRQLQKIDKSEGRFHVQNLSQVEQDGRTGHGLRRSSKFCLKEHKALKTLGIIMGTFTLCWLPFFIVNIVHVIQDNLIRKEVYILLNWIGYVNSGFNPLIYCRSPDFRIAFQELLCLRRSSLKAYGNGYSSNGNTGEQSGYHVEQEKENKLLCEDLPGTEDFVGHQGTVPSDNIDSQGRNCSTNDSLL
LANA-H2B inh – blocks KSHV LANA binding to histone H2A/H2B; actives 0.6% (n = 320,000); inhibition, % (concentration not given with the values); Q9QR71; cell-free LANA-H2A/H2B peptide, fluorescence polarization; in the data active means inhibition mostly above about 10%, no sharp cut-off; inactive means mostly below about 6.7%;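 further: stock transfer was 7.5 nL into about 10 µL; 0% = median of vehicle wells and 100% = median of positive control wells; one replicate is shown; the record names a cut of 25% in any replicate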
ALR inh – blocks human ALR sulfhydryl oxidase activity; inhibition, % (concentration not given with the values); actives 3.8% (n = 290,000); AID 485317; purified ALR, DTT oxidation, H2O2 HRP-luminol luminescence;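 active means mean and each replicate at 75% or more; inconclusive means only one of the two met; inactive means neither met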;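 further: stock transfer was 7.5 nL into about 7.5 µL; 0% = neutral wells and 100% = wells with inactivated enzyme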
Target sequence (P55789 whole entry, looked up): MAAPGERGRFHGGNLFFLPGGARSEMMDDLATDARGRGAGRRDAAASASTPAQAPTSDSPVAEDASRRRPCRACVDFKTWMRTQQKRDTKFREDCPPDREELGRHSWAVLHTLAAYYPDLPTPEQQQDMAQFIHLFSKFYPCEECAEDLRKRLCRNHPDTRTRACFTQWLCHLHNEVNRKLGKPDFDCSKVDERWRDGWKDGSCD
A1 inh – inhibitors of the anti-apoptotic protein A1, read as caspase activation | MEF A1-2A-BIM cells, Caspase-Glo 3/7 luminescence, 3 h; percent of clofoctol response, vehicle zero | caspase activation, % (no concentration beside the values) | actives 0.066% (n = 330,000);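 active means over half of replicate activation scores above 10%, or exactly half above 10 with the replicate mean above 10; inconclusive means replicate mean below 10 yet half the replicates above 10; inactive means over half of replicates below 10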;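 further: wells of about 30 µL received 50 nL stock; many hits fall short of the cut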
rRNA inh HTS OD600 – second read-out of rRNA inh HTS, no call of its own (marks repeat the call); OD600 change, %; measured here: OD600 growth;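 optical density of the mix in the first replicate; 0 = DMSO median and -100 = no signal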
rRNA inh HTS RFP – also measured in rRNA inh HTS; calls as there; RFP signal change, %; measured here: RFP humanized mutant strains;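 first replicate; 0 = DMSO median and -100 = no signal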
* marks the source's active call; other numbers are inactive results; ? = inconclusive; · = no result given. Not all compounds are listed; the hit share may differ from the screen's.

Values in the order – rRNA inh HTS, rRNA inh HTS OD600, rRNA inh HTS RFP, T cruzi inh, Beta cell apopt, Calb FLC, B2AR ag, LANA-H2B inh, ALR inh, A1 inh
- CCCN(C(=O)CCNC(=O)Cn1cnc2ccccc2c1=O)c1cccc(Cl)c1
 : ·, ·, ·, 18, 8, 5, 9, -6.0, -2, 0.8
- Cc1ccc(C(=O)NC2CCCC2)s1
 : 17, 20, 14, 6, -3, -7, -3, 7.5, 23, 0.5
- COCCN(C(=O)Cc1cccs1)C(C(=O)NC1CCCC1)c1cc(OC)c(OC)c(OC)c1 (stereo not drawn)
 : 13, 23, -1.6, -1, ·, -2, -2, 4.2, -11, -0.4
- CN(Cc1cccc(F)c1)C(=O)Cc1ccc(S(=O)(=O)N2CCOCC2)s1
 : 7, 5, 1.2, 14, -3, -11, -2, 3.2, -3, 0.4
- Nc1nonc1C(=O)NCCc1ccccc1
 : 17, 13, 3.8, -2, -9, 5, -13, 4.3, -9, -1.7
- COc1cc(NC(=S)NCc2cccnc2)c(OC)cc1Cl
 : 8, 5, -1.1, 6, -2, -1, 5, -6.6, ·, -0.1
- CN1CCN(C(=O)NC2CCCCC2)CC1
 : ·, ·, ·, -1, -6, -5, -8, 3.6, -5, -1.8
- Fc1ccc(-c2csc3ncnc(Cl)c23)cc1
 : ·, ·, ·, -19, 2, -3, -5, 0.4, -36, -0.2
- O=C(Cc1coc2cc(O)ccc12)NNC(=O)c1ccc(Br)s1
 : -21, -20, -2.5, ·, 0, ·, -2, -0.6, 99*, 1.3
- Cc1c(NC(=O)Nc2cccc(Cl)c2Cl)c(=O)n(-c2ccccc2)n1C
 : 1, 9, -0.4, -25, -6, -2, -8, -5.4, -8, -0.7
- CS(=O)(=O)N1CCN(c2ccccc2NC(=O)c2ccc3c(c2)OCCO3)CC1
 : -6, -7, -3.0, 7, 1, 21, -3, -0.6, 1, -0.3
- COc1cccc(NC(=O)C2=COCCO2)c1
 : 8, 11, -0.1, -8, -1, -5, -1, -0.5, -3, -4.1
- O=C1CC(NS(=O)(=O)c2ccc([N+](=O)[O-])cc2)CN1c1ccc(Cl)cc1 (stereo not drawn)
 : 11, -19, -5.0, 62*, 5, -8, 8, 0.5, -15, -0.4
- O=C1NC2(CCCCCC2)C(=O)N1Cc1ccccc1Cl
 : -10, -10, -11, 7, 3, -16, 5, 2.8, 2, 0.5
- CC(C)C1Oc2ccccc2N(CC(=O)N(Cc2ccccn2)C2CC2)C1=O (stereo not drawn)
 : ·, ·, ·, 10, -4, 0, -7, -3.3, -12, -0.5
- CC(C)(C)c1ccc(Cn2ccc(-c3ccc4c(c3)OCO4)n2)cc1
 : ·, ·, ·, -12, -5, -27, -3, 1.5, -4, 0.1
- CCc1noc(C)c1C(=O)N1CCCC(N2CCN(c3cccc(Cl)c3)CC2)C1 (stereo not drawn)
 : -2, 1, -1.3, 8, 1, -3, -2, -1.8, 14, -1.3
- CCC(=O)Oc1ccc(C(=O)Nc2cccc(C(=O)c3ccccc3)c2)cc1
 : ·, ·, ·, -11, 10, 7, 5, -2.0, -16, -2.8
- CCOC(=O)C1CCN(C(=O)c2ccc(N(C)S(=O)(=O)c3ccc(OC)cc3)cc2)CC1
 : -14, -17, -2.7, 15, -17, -5, 2, 3.8, -8, 0.0
- COC(=O)[C@@]1(Cc2ccc(F)cc2)[C@H]2c3cc(C(=O)N(C)C)n(Cc4ccc(OC(F)(F)F)cc4)c3C[C@H]2CN1C(=O)c1ccccc1
 : 11, 3, 11, 45, 16, 14, ·, -7.7, ·, 0.5
- Cc1cccc(Cn2c(N3CCN(c4ccccc4)CC3)nc3c2c(=O)n(C)c(=O)n3C)c1
 : ·, ·, ·, 37, -11, 2, -12, 1.6, 5, 0.2
- CN1CCN(C(=O)c2ccccc2N(Cc2ccccc2)S(=O)(=O)c2ccccc2)CC1
 : -7, -8, -1.7, -7, ·, -6, -3, 0.0, ·, 0.0
- Cc1ccc(NS(=O)(=O)c2cc(C(N)=O)ccc2C)cc1
 : 9, 4, -4.1, 0, -2, -2, 5, -3.9, 4, -0.9
- CC(C)c1ccc(Nc2nc(Cl)nc(Cl)n2)cc1
 : 15, 10, -0.8, -3, -2, 3, 6, 0.1, ·, 0.2
- C#CCN(C(=O)CC1C(=O)NCCN1C/C=C/c1ccccc1)C1CCCCC1 (stereo not drawn)
 : 6, -5, 2.5, 12, ·, -1, -1, 7.9, 2, 1.2
- CC(C)OC(=O)c1cccc(C(=O)Oc2ccc(Br)cc2)n1
 : ·, ·, ·, 4, -3, 5, 9, -1.2, 13, 1.3
- CCc1ccc(NC(=O)CSc2nnc(Cn3c(=O)sc4ccccc43)n2C)cc1
 : 4, 10, 2.0, ·, 0, ·, -9, -4.5, -2, 0.8
- CCOC(=O)C1(Cc2cccc(OC)c2)CCN(Cc2ccccc2OC)CC1
 : -18, -25, -0.9, 11, -1, -2, -15, -3.2, 5, 0.0
- O=C(C(Sc1ccccc1)c1ccccc1)N1CCN(c2ccccc2)CC1 (stereo not drawn)
 : ·, ·, ·, 14, -1, 8, 0, 3.9, -1, 0.1
- CCOC(=O)C1=NOC(CNC(=O)c2ccccc2Cl)C1 (stereo not drawn)
 : 36, 17, 2.5, -9, -6, -7, 1, 0.3, -6, 0.5
- Cc1[nH]nc(N=Cc2c(O)n(C)c(=O)n(C)c2=O)c1-c1ccccc1
 : ·, ·, ·, -10, -5, 40, ·, 4.5, -1, -0.6
- CCOc1ccc(C(=O)C(C)OC(=O)c2nc(Cl)ccc2Cl)cc1 (stereo not drawn)
 : 0, -2, 1.5, 6, 0, -5, -6, -2.9, -17, 0.0
- COC(=O)c1c(C)[nH]c(C)c1C(=O)c1ccccc1Cc1ccccc1
 : 2, -5, -1.0, 27, -3, ·, -2, 0.1, -2, -0.5
- COc1cc(-c2nc(C(=O)NCC3CCCO3)cc3c2[nH]c2ccccc23)cc(OC)c1OC (stereo not drawn)
 : ·, ·, ·, 32, 25, 47, 5, -0.9, 99*, -0.9
- COCCNC(=O)c1ccc2c(c1)nc(C)n2-c1cccc(Cl)c1
 : 8, 1, -9.6, 5, 2, 8, 8, -0.1, -1, 0.0
- COc1cc(C(=O)NCC(=O)OCC(=O)Nc2ncc(Cl)cc2Cl)cc(OC)c1OC
 : 9, 6, 0.5, -16, 0, 5, 3, -3.6, -4, 0.9
- Cc1ccc2[nH]c3c(=O)n(CC(=O)N4CC(C)CC(C)C4)ncc3c2c1 (stereo not drawn)
 : 6, 10, 0.0, 5, -1, 5, 2, 11, -7, 0.5
- CCOC(=O)C1(CC2CCCCO2)CCN(Cc2c(C)cc(C)cc2-n2cccn2)CC1 (stereo not drawn)
 : 3, -3, -2.3, 5, 3, 2, 10, 1.8, -17, 2.6
- Cc1ccc(OCC(=O)O/N=C(\N)c2ccccn2)cc1
 : 9, 8, 3.9, -18, 1, 14, 23, 2.2, -3, -2.2
- O=C(COC(=O)C1CCCCC1C(=O)N1CCc2ccccc21)NCc1ccco1 (stereo not drawn)
 : ·, ·, ·, -16, -13, -1, -7, 3.5, 2, 0.0
- CCN(CC)/C(=N\S(=O)(=O)c1ccc(F)cc1)c1ccccc1
 : 13, 11, 0.2, -7, -2, -17, -7, -2.3, -5, 0.1
- Cc1nc2ccccc2nc1NS(=O)(=O)c1ccc(N)cc1
 : 7, 5, 3.8, -8, 0, 14, 12, -7.0, ·, -0.2
- C=C(C)c1cccc(C(C)(C)NC(=O)Nn2cnnc2)c1
 : 3, 0, -2.1, -22, -8, 6, 5, 4.3, -6, -0.6
- CCOC(=O)c1c(NC(=O)c2ccccc2C(=O)O)sc2c1CCCC2
 : -24, -23, -5.6, 3, -9, 24, 2, 3.4, ·, -0.4
- Cc1cc(C)n2c(SCC(=O)NC3CCCC(C)C3C)nnc2n1 (stereo not drawn)
 : 6, 14, 4.4, -18, -7, 11, -15, 1.9, -6, -0.6
- O=C(Nc1cccc(F)c1)N1CCN(C(=O)c2ccco2)CC1
 : 16, 13, 0.2, -23, -3, -10, 12, 9.9, -11, 1.1
- O=C1C=C(NCC2CCCO2)C2(CCCCC2)O1 (stereo not drawn)
 : ·, ·, ·, -6, -12, -9, -3, 5.7, 27, 0.6
- CCOC(=O)C1(CCOC)CCN(C(=O)c2ccc(CSC)o2)CC1
 : 1, -5, -1.9, -4, 3, 1, -1, 12, 6, 0.5
- O=C(Nc1ccccn1)C1CCN(S(=O)(=O)c2ccccc2)CC1
 : 0, 3, -2.0, ·, -8, ·, 7, -0.3, 12, -5.0
- CCOc1ccc(-c2ccc(NS(=O)(=O)c3ccc([N+](=O)[O-])cc3)cc2)nn1
 : -12, -14, -4.4, 35, -4, ?, 6, 0.9, ·, 4.0

New compounds follow.
Values in the order – rRNA inh HTS, rRNA inh HTS OD600, rRNA inh HTS RFP, T cruzi inh, Beta cell apopt, Calb FLC, B2AR ag, LANA-H2B inh, ALR inh, A1 inh
- CC1=C(C(=O)OCCc2ccccc2)C(c2ccsc2)NC(=O)N1C (stereo not drawn)
 : ·, ·, ·, 3, -1, -4, -1, 2.5, 0, 0.1
- COC(=O)c1c(C)cc(C)n2c1nc1ccccc12
 : ·, ·, ·, -4, -3, 27, -8, 0.5, -13, -0.3
- CCOC(=O)c1cc(-c2ccc(F)cc2)n(CC(=O)NCc2cccnc2)c1C
 : -4, -2, -2.4, 0, 6, 5, -25, 2.0, -10, 0.7
- COc1ccc(NC(=O)Nc2c(C)n(C)n(-c3ccccc3)c2=O)cc1
 : 7, 10, 0.3, -6, -2, -1, 6, 3.9, ·, -0.5
- O=C(CCN1C(=O)/C(=C\c2ccccc2)SC1=S)NNC(=O)c1cccnc1
 : 7, 19, -1.7, 6, 8, -29, -1, -0.4, -7, 0.5
- CCOC(=O)c1[nH]c(C)c(C(=O)N(C)C)c1C
 : ·, ·, ·, -26, 0, -12, -4, 0.5, -2, 0.4
- CCCCCCCCCCCNC(=O)c1ccoc1C
 : ·, ·, ·, -8, 9, -9, 0, -8.5, 32, 1.3
- COc1ccc(CNC(=O)COC(=O)CCN2C(=O)C3CC=CCC3C2=O)cc1OC (stereo not drawn)
 : 10, 9, -0.2, ·, -7, ·, -3, 0.1, -19, -0.4
- Cc1ccc(-c2ccnc3cc(C)nn23)cc1
 : 4, 0, -1.8, -16, 3, 1, 0, -2.2, -3, 0.8
